Bioassay records from PubChem BioAssay.
Menin-MLL FL inh: menin-MLL binding inhibition, fluorescein peptide | FP activity change, % at 61.4 µM | AID 1766 | Fluorescence polarization, fluorescein-MLL peptide displacement from menin | 290,000 tested, under 10 active; inconclusive = falling polarisation curve, or a change in total fluorescence; inactive = total fluorescence flat and polarisation flat or rising; no compound was filed as active; the % refers to the polarisation; negative = inhibition;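 also: % of control where 0% means no effect; inhibitors lower the polarisation; unlabelled MLL peptide was the positive control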
TRPV1 potentiator: potentiators of human vanilloid receptor 1 (TRPV1). Q8NER1. TRPV1-expressing cells, Fluo-8 calcium influx, capsaicin EC20 potentiation; host cell line not named in the record; control for the full effect not named in the record. potentiation, % at 8.33 µM. hit rate 0.02% among 320,000. AID 540277; active means potentiation above 80%; inconclusive means 30% to 80%; inactive means below 30%; also: 0% is about no effect
Target sequence (Q8NER1 whole entry, looked up): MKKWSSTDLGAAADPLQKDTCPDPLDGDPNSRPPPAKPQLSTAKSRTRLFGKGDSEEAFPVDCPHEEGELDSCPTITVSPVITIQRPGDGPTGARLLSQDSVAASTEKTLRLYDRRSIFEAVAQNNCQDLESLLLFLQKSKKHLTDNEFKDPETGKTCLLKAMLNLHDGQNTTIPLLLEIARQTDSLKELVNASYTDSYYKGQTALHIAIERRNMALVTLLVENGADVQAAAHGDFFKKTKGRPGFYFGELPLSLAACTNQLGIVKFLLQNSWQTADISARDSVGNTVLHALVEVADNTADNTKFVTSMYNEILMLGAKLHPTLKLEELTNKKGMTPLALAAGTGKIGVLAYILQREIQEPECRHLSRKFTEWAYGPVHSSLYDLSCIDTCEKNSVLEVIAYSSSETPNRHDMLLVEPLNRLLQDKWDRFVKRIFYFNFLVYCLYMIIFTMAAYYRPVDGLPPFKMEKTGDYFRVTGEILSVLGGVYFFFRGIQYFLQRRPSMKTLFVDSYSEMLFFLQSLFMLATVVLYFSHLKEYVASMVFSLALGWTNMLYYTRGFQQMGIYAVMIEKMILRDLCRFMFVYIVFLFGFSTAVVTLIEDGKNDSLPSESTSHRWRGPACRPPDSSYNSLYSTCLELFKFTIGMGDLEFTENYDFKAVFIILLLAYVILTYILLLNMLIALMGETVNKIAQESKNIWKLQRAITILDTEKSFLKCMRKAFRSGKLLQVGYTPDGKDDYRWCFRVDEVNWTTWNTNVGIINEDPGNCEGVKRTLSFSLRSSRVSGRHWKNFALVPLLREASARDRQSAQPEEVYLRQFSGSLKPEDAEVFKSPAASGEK
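Cells expressing TRPV1 were dye-loaded with Fluo-8 and read kinetically: 10 s baseline, 3 min after compound (agonist portion), then 2 min after EC20 capsaicin (allosteric enhancer portion). Calcium-bound dye fluorescence at 480/520 nm.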
ClpP mod: qHTS Assay for Activators of ClpP; hit rate 1.9% among 340,000; AID 651965, 2013; purified B. subtilis ClpP, FRET peptide cleavage, 20 min; Potency, µM (highest dose often 57.5 µM), for inactives: top-dose activity change, negative = active; active = well fitted falling curve with a large enough effect; inconclusive = small, poorly fitted or top-dose-only effect; inactive = no such curve, though single readings can be large or run the other way; also: potency is read from the fitted curve at half-maximal effect; the source files actives as falling curves though it sought activators and does not explain the sign; nearly all actives have a fitted effect of over 65% in size; many hits overshoot -100%
Target sequence (P80244 whole entry, looked up): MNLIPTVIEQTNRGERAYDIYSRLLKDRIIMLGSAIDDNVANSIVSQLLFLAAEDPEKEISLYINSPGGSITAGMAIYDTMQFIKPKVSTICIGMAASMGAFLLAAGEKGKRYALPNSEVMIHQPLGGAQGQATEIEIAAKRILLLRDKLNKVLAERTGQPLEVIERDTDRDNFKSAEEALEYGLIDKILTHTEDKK
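FRET quenching reversal measured ClpP activation: 10 microg/mL B. subtilis ClpP at pH 8 with the FRET-FV decapeptide, read at 430 nm after 320 nm excitation. The 20-min minus 0-min signal was scaled between DMSO/no-enzyme wells and ADEP (5.8 microM final).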
gsp antagonist: antagonists of gsp mutant (McCune-Albright syndrome); gsp-mutant cells, cAMP HTRF, 30 min; control for the full effect not named in the record; Potency, µM (titrated, usually from 76.9 µM), for inactives: at the top dose activity change, negative = inhibition, most hits filed as inhibitors; hit rate 0.4% among 340,000; active = falling curve of any shape with a large fitted effect; inconclusive = falling curve, mostly with a smaller effect; inactive = flat or rising curve; cell line not stated here;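 also: intracellular cAMP measured with PDE inhibitor Ro 20-1724 present during compound exposure; potency is read from the fitted curve at half-maximal effect; % is scaled to controls: 0 for no effect and ±100 for the full control effect; nearly all actives have a fitted effect of over 65% in size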
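G418-selected cells were plated in DMEM/10% FBS for 16-24 h at 37C, then treated with compounds plus the PDE inhibitor […] (300 uM solution added) for 30 min at 37C. Intracellular cAMP was measured by HTRF after 30 min lysis at room temperature.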
gsp agonist: activates gsp, the McCune-Albright syndrome mutation; gsp mutant cells, cAMP HTRF, 30 min; control for the full effect not named in the record; Potency, µM (doses to about 76.9 µM), for inactives: at the highest dose activation (cAMP increase), most hits filed as activators; hit rate 0.13% among 340,000; AID 624287; active = well fitted activation curve with a large enough effect; inconclusive = small, poorly fitted or top-dose-only effect, or another doubt; inactive = no such curve, though single readings can be large or run the other way; cell line not stated here;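 also: phosphodiesterase inhibitor Ro 20-1724 added with compounds to block cAMP breakdown; potency is read from the fitted curve at half-maximal effect; nearly all actives have a fitted effect of over 60% in size; about a fifth of the inactives were tested at one dose only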
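Cells in DMEM/10% FBS with G418 were pretreated with compounds in DMSO plus […] (300 uM stock) for 30 min at 37C. cAMP was measured by HTRF (cAMP-d2 plus anti-cAMP antibody-K) after 30 min at room temperature.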
D2 potentiator: potentiates the human D2 dopamine receptor allosterically; potentiation, % (test concentration not listed); AID 624464; DiscoveRx D2 beta-arrestin cells, luminescence, 90 min; 100% = 57 uM dopamine signal; hit rate 0.23% among 360,000; active = potentiation of 50% or more; inconclusive = 30% to 50%; inactive = 30% or less;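 also: compound concentration not given in the record; tested on top of an EC20 dose of dopamine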
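PathHunter beta-arrestin assay in DiscoveRx D2 cells. Compounds were added with an EC20 of dopamine (50 nM final) for 90 min at 37 deg C. Luminescence was read 1 h after detection reagent, with 57 uM dopamine as the EC100 control.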
Sfp inh: blocks B. subtilis Sfp PPTase activity | hit rate 3.5% among 310,000 | Biochemical Sfp PPTase activity, qHTS | AID 1490 | Potency, µM, without a hit: max response, negative = inhibition, usual class: inhibitors; active = well fitted inhibition curve with a large enough effect; inconclusive = small, poorly fitted or top-dose-only effect, or another doubt; inactive = no such curve, though single readings can be large or run the other way;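 also: the enzyme is Sfp with the accession as filed and its product quenches rhodamine fluorescence; potency is read from the fitted curve at half-maximal effect; 0% = enzyme reaction without inhibitor and -100% = no enzyme wells; top concentration of the series not given in the record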
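Buffer: 50 mM Hepes-Na pH 7.6, 10 mM MgCl2, 0.01% Nonidet P-40, 0.01% BSA. Enzyme 15 nM, pre-exposed to compound 15 min; substrates then added and fluorescence change tracked over 30 min.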
Numbers without * were called inactive; ? = inconclusive; nt = no result given; [ ] = dose if it differs, or a comment.

smiles,Menin-MLL FL inh,TRPV1 potentiator,ClpP mod,gsp antagonist,gsp agonist,D2 potentiator,Sfp inh
CC(=O)Oc1ccc(C(=O)c2ccccc2)c(OC(C)=O)c1,6.6,12.1,nt,0.8%,-24.9%[15.4 µM],-9.5,16.1%
CCn1cnc2c1c(=O)n(CC(=O)N1CCc3ccccc31)c(=O)n2Cc1ccccc1,4.6,15.0,-2.3%,15.6%,-3.7%,-6.3,?
CCCCN1CC(=O)N2[C@H]3c4cc(Cl)ccc4OC[C@@H]3[C@H](C(=O)OCC)[C@]2(C)C1=O,nt,-2.1,-2.5%,-3.3%,nt,-1.3,nt
N=C1/C(=C\c2ccc(-c3cccc(C(=O)O)c3)o2)C(=O)N=C2SC=C(c3ccccc3)N12,?,nt,-5.3%,-27.9%,-21.3%,-7.4,0.5%
CCCCn1c(N)c(N(CC(C)C)C(=O)c2ccc(F)c(S(=O)(=O)N3CCOCC3)c2)c(=O)[nH]c1=O,nt,1.7,-0.7%,13.8%,16.3%,-5.1,nt
Fc1ccccc1N1CC(c2ccccc2)C(c2cccs2)=N1 (stereo unspecified),0.9,-2.2,15.8µM*,-3.2%,?,-7.2,6.6%
CCCNC(=O)Nc1ccccc1C(=O)Nc1ccc(OC)cc1,1.6,6.2,-1.7%,-6.7%,-26.7%,-3.4,13.6%
O=C(CN1CCN(S(=O)(=O)N2CCCCC2)CC1)Nc1cc(Cl)cc(Cl)c1,-6.7,4.6,0.1%,-21.9%,-5.8%[15.4 µM],2.0,7.6%
COC(=O)c1sccc1NC(=O)c1ccc(OC)cc1OC,-2.0,-6.9,-5.7%,0.6%,-27.2%,21.2,15.0%
CCCCN1C(=O)C(=O)c2cc(Cl)ccc21,nt,nt,-8.8%,13.2%,nt,-38.3,nt
CC1SCC(=NOCc2c(Cl)cccc2Cl)CS1 (stereo unspecified),-2.7,-2.9,nt,11.0%,16.2%,-1.7,11.4%
COc1ccc(CCNC(=O)CSc2nccc(=O)[nH]2)cc1OC,-0.3,9.6,nt,2.5%,3.8%[15.4 µM],0.4,-4.2%
COc1cc2[nH]c3c(=O)n(N)c(=O)[nH]c3c2cc1OC,0.9,1.5,nt,-11.2%,9.7%[15.4 µM],-5.0,-6.1%
N#Cc1cccc(S(=O)(=O)NCC(=O)NCCCc2ccccc2)c1,3.2,-5.5,nt,2.9%,9.5%[15.4 µM],-2.4,18.3%
COC(=O)c1ccccc1NC(=O)Cn1c(=O)n(Cc2ccccc2)c(=O)c2c(C)c(C)sc21,4.6,8.2,1.3%,-2.7%,3.9%[15.4 µM],-8.6,79.4µM*
COc1ccccc1NC(=O)COC(=O)c1[nH]c(=O)[nH]c(=O)c1N,nt,nt,-23.0%,3.5%,-3.1%,-4.0,nt
Cc1c(C(=O)N2c3ccccc3Sc3ccccc32)cccc1[N+](=O)[O-],2.2,?,0.9%,-28.3%,-32.8%[15.4 µM],1.0,-2.8%
Nc1ccc(Oc2ccc(F)cc2)nc1,?,-6.1,?,11.4%,-2.0%,-0.7,25.9%
Cc1ccccc1S(=O)(=O)N(CC(O)CN1C(=O)NC(C)(C)C1=O)c1ccccc1 (stereo unspecified),3.8,-18.7,nt,1.8%,-11.1%[15.4 µM],-7.5,-0.3%
CCN1CCN(CC(=O)Nc2sc3c(c2C#N)CCC(C)C3)CC1 (stereo unspecified),-2.3,5.4,-0.6%,28.3%,-6.0%,-25.6,-23.1%
COc1ccc(OC)c(NC(=O)c2nnn(CC(=O)Nc3ccc4c(c3)OCO4)c2N)c1,1.3,2.9,4.1%,8.2%,6.3%,-6.8,-23.1%
CC(C)S(=O)(=O)c1cnc(-c2ccccn2)nc1N,2.6,-3.6,-1.5%,9.5%,3.0%[15.4 µM],2.0,14.1%
CC(C(=O)Nc1ccc(Cl)cc1)N1C(=O)NC2(CCCC2)C1=O (stereo unspecified),0.0,-9.2,nt,3.4%,-33.0%[inhibitor],-8.5,21.2%
CCSc1nnc(Cc2cc(=O)[nH]c(=O)[nH]2)n1-c1cc(C)ccc1C,4.7,-5.4,-0.8%,3.3%,14.9%,-2.5,-14.5%
CCCCc1c(O)nc(N2CCN(Cc3ccccc3)CC2)[nH]c1=O,22.9,10.9,-0.3%,4.8%,?,-6.1,5.8%
CCN1C(=O)/C(=C\c2cn(CCC#N)nc2-c2ccc(F)cc2)SC1=S,5.4,-12.8,0.6%,-24.3%,-1.0%,3.9,?
CCOC(=O)c1ccc(NC(=O)c2nc[nH]c2C(=O)N2CCN(C(=O)OC(C)(C)C)CC2)cc1,2.1,-1.6,nt,nt,nt,nt,6.7%
O=C1c2ccccc2C(=O)N1CCC#C/C=C1\c2ccccc2C(=O)N1c1ccccc1,nt,nt,-1.1%,nt,?,13.0,nt
CC(=O)Nc1ccc(S(=O)(=O)N(C)CC(=O)NC2CCCCCCC2)cc1,nt,nt,-1.1%,-4.5%,-12.4%[15.4 µM],-5.7,nt
CS(=O)(=O)N1CCC(C(=O)Nc2ccccc2)CC1,1.9,0.2,-3.4%,3.4%,-6.4%,-11.1,4.1%
Cc1cc(Cl)cc2sc(NC(=O)C3CC3)nc12,-4.6,8.4,-22.5%,3.8%,?,-4.3,3.7%
COc1cc(/C=N/NC(=O)CCOc2ccccc2C)cc(Br)c1O,-1.5,-5.7,nt,-30.8%,15.8%[15.4 µM],-5.8,-14.2%
CCOc1ncccc1C(=O)OCC(=O)NCCc1ccc(OC)cc1,0.7,0.2,-0.9%,-4.3%,0.5%,5.9,3.6%
COc1ccc(S(=O)(=O)NCc2ccc3c(c2)OCO3)cc1OC,3.9,5.9,-1.7%,3.1%,-14.3%,-8.0,10.1%
CC(C)NC(=O)c1cccc(C(F)(F)F)c1,3.5,8.1,-0.9%,2.4%,-5.6%,0.4,6.1%
Cc1ccc(C(C)(C)C)c(OCCCCN2CCCC2)c1,-4.2,-7.6,-5.2%,10.5%,-19.9%,-37.6,-28.7%
COC(=O)c1cc(=O)n2c(-c3ccc(OC)cc3)csc2n1,0.3,1.4,-0.2%,0.5%,18.3%,-6.4,-5.5%
O=C(CN1C(=O)NC2(CCCCCC2)C1=O)NCCc1ccc(F)cc1,nt,-2.0,-0.5%,11.5%,6.4%,-2.6,nt
Cc1ccccc1C(=O)N1CCC(C(=O)OCc2nc(N)nc(Nc3ccccc3)n2)CC1,nt,0.2,2.9%,-3.4%,13.5%,1.4,nt
O=C(NCCCN1CCOCC1)c1c(O)c2ccccc2[nH]c1=O,-3.5,19.1,-10.7%,17.7%,-16.6%,-19.1,0.7%
C=CCOc1ccc(/C=C/C(=O)OCC(=O)NCCCc2ccccc2)cc1,nt,2.5,nt,2.0%,-6.3%[15.4 µM],-3.6,nt
N#Cc1cc(Oc2cccnc2)c(Oc2cccnc2)cc1C#N,8.8,7.8,-1.5%,11.9%,-22.4%,-1.9,15.9%
Cc1ccc(S(=O)(=O)Nc2ccc(N3CCN(C)CC3)nc2)cc1,-25.1,-1.0,nt,1.1%,?,-21.0,4.2%
C=C(C)COc1ccc2c(C)c(CC(=O)N3C[C@H]4C[C@@H](C3)c3cccc(=O)n3C4)c(=O)oc2c1C,-0.1,-2.7,4.3%,-11.4%,nt,-23.6,-6.9%
Cc1ccc(N(Cc2cc3ccccc3[nH]c2=O)C(=O)c2cccs2)cc1,4.7,-5.8,1.0%,0.1%,-1.2%[15.4 µM],-7.2,3.4%
Cc1cc(C)n(-c2nc(-c3ccccc3)cs2)n1,2.2,15.9,1.8%,4.3%,-11.4%,-25.7,-6.1%
Cc1ccc(C)c(OCC(=O)N/N=C\c2cccn2C)c1,-0.3,-9.4,nt,-16.5%,0.4%[15.4 µM],-10.0,9.5%
COc1ccc(-c2cccc(C(=O)Nc3cccc(C(=O)O)c3)c2)cc1,nt,16.1,0.5%,-0.7%,-17.9%,-9.1,-12.2%
CN(C)/C=C(\C#N)S(=O)(=O)c1ccc(Cl)cc1,1.2,-20.2,-23.6%,2.1%,-0.5%[15.4 µM],-2.1,22.7%
COc1cccc(OCc2cc(/C=N/n3cncn3)ccc2OC)c1,4.1,-0.3,nt,-11.2%,1.8%,-2.8,2.9%
COc1cc(NS(C)(=O)=O)cc(OC)c1OC,-1.1,7.8,nt,6.1%,-7.6%,1.6,22.8%
C=CCN1C(=O)CSc2ccc(C(=O)NC(C)c3ccccc3)cc21 (stereo unspecified),-1.4,-6.4,-1.0%,-12.0%,-11.9%,-30.5,12.9%
CCN1CCN(CCCNC(=O)CN2C(=O)c3cccnc3Oc3ccc(Cl)cc32)CC1,nt,-3.1,-0.2%,10.3%,19.8%,-8.8,7.3%
C/C(=N\NC(=O)CCc1c(C)n[nH]c1C)c1ccc([N+](=O)[O-])cc1,0.1,-12.8,0.2%,-5.8%,-1.6%,-25.9,9.4%
COC(=O)c1ccc(NC(=O)C(C)N2C(=O)c3ccccc3C2=O)cc1 (stereo unspecified),-1.3,13.8,0.4%,0.0%,-3.3%,4.0,15.4%
N#C/C(=C\c1cccc2ccccc12)c1nn(-c2ccccc2)c(N)c1C#N,nt,nt,7.7%,2.1%,44.2%,-3.2,nt
COc1cc(OC)cc(C(=O)NC(=S)N2CCCCC2c2cccnc2)c1 (stereo unspecified),-0.4,-4.9,-1.3%,-12.9%,nt,-12.3,-26.6%
